HIV TAR-Tat: TAR RNA-Tat peptide displacers, HIV-1, primary screen, biochemical, FRET, FAM/TAMRA-labeled Tat | HIV-1 TAR RNA, Tat peptide displacement FRET; stronger effect = higher value | z-score (no concentration beside the values) | 100,000 tested, 0.6% active | AID 1259389, 2018;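 further: score is relative to mean and SD of negative controls; some compounds called inactive have numbers as strong as hits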
CDC25B-CDK2 inh: primary biochemical HTRF screen for blockers of M-phase inducer phosphatase 2 binding to CDK2/cyclin A; z-score (no concentration beside the values); HTRF CDC25B-CDK2/CyclinA binding, anti-His/anti-Flag; stronger effect = higher value; AID 1259370, 2018; 94,000 tested, 0.72% active; P30305+P24941;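 further: score is relative to mean and SD of negative controls; strong numbers were not always called active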
Numbers without * were called inactive; . = no result given; & = joins results of further samples.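 How the source made its calls: active means z-score from 3 up in half or more of its runs; inactive means the rest.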

SMILES | HIV TAR-Tat | CDC25B-CDK2 inh
COCCOC(=O)C1=C(C)Nc2nc3ccccc3n2C1c1cc(OC)ccc1OC (stereo unspecified) | -0.4 | -0.47
CC1(C)CC(=O)C2=C(C1)OC1=C(C(=O)CC(C)(C)C1)C2c1cccc2ccccc12 | . | -0.12
CCc1nc2nc(C)cc(N3CCN(C(=O)c4ccco4)CC3)n2n1 | 1.7 | -1.1
Cn1c(SCc2ccc(F)cc2)nnc1-c1ccc2c(c1)OCCCO2 | 1 | .
COc1ccc(S(=O)(=O)N2CCC(NC(=O)NCC3CCCO3)CC2)cc1 (stereo unspecified) | -0.84 | -1.7
O=C(Nc1nnc(SCc2ccccc2)s1)c1csnn1 | -0.07 | -1.1
O=C(Nc1ccccc1)C1=C(NCc2ccco2)c2ccccc2S1(=O)=O | 0.18 | .
Cc1ccc(-c2nc(NC(=O)c3sc(C)nc3C)sc2C)cc1 | 2 | -2.2
CC(NCc1ccccc1)C1COc2ccccc2O1 (stereo unspecified) | . | 0.1
O=C(Nc1cccc(F)c1)c1c(O)c2ccccc2[nH]c1=O | -15 | -0.95
CCCOC(=O)COc1ccc2c(=O)c(Oc3ccc(CC)cc3)coc2c1 | . | -0.12
CCC(C(=O)N1CCN(c2cc(=O)n(C(C)C)c(=O)n2C(C)C)CC1)N1C(=O)COc2ccccc21 (stereo unspecified) | -0.52 | .
Cn1c(=O)oc2cc(S(=O)(=O)N3CCCC(C(=O)NC4CCCc5ccccc54)C3)ccc21 (stereo unspecified) | 2.5 | 0.12
CC(C)CC1N=C2c3ccccc3N=C(SCC(=O)Nc3ccccc3Cl)N2C1=O (stereo unspecified) | 0.25 | .
CN(Cc1ccccc1)C(=O)Cn1ncn2nc(-c3ccccc3)cc2c1=O | -0.26 | .
COc1ccc(-c2nnc(SCc3nc(N)nc(Nc4ccccc4)n3)o2)cc1 | . | 0.54
CNC(=O)c1c(NC(=O)c2ccc(S(=O)(=O)N3CCc4ccccc4C3)cc2)sc2c1CCC2 | 1.2 | .
O=C(NCc1cccn1Cc1cccc(F)c1)Nc1ccc2c(c1)OCO2 | -1 | .
Cc1ccc(C)c(Nc2n[nH]c(=S)s2)c1 | . | -2.1
O=C(CC1=NS(=O)(=O)c2ccccc2N1)N1CCN(c2cccc(Cl)c2)CC1 | 1.6 | .
CCCCc1nc2ccccc2n1Cc1ccccc1 | -0.45 | -1.5
CC1=C(C(=O)OCC2CCCO2)C(c2ccccn2)C2=C(CC(C)(C)CC2=O)N1 (stereo unspecified) | 1 | -0.85
O=C(NC1CCCC1)[C@@H](c1ccccc1)N1Cc2ccccc2C1=O | 1.3 | 0.99
Cc1cc(C)c2c(=O)nc(SCC(=O)N3CCCc4ccccc43)n(C3CC3)c2n1 | 1.4 | .
C=CCN(Cc1nc(-c2ccc(OC)cc2)no1)S(=O)(=O)c1c(C)cc(C)cc1C | 1.8 | -0.24
C=CCOc1ccc(C2c3c(oc4cc(C)c(C)cc4c3=O)C(=O)N2CCOC)cc1 (stereo unspecified) | -0.15 | -2.6
Cc1ccc(C)n1-c1nnc(N2CCC(C(=O)NCCC3=CCCCC3)CC2)s1 | -1.5 | 0.51
COc1ccc(OCCN2CCn3c2nc2ccccc2c3=O)cc1 | 0.17 | -0.14
CC(=O)O[B-]12Oc3ccccc3[N+]1=NC(c1ccc([N+](=O)[O-])cc1)=NN2c1ccccc1 (stereo unspecified) | . | 0.31
CC1CC(C)CN(C(=O)Cn2cnc3sc4c(c3c2=O)CCCC4)C1 (stereo unspecified) | 0.89 | .
CC1CN(C(=O)Nc2ccc(Cl)cc2)c2ccccc2S1 (stereo unspecified) | 1.2 | .
CSc1ccc(CCNC(=O)c2cnc3sc(N4CCCC4)nn3c2=O)cc1 | 0.89 | .
CC1CCCN(c2nnc(NC(=O)Nc3ccc(Cl)cc3)s2)C1 (stereo unspecified) | 0.4 | -1.9
O=C(Cn1cnc(S(=O)(=O)N2CCOCC2)c1)N1CCc2ccccc2C1 | 0.06 | .
CCOc1ccc(C2c3c(oc4ccc(F)cc4c3=O)C(=O)N2CCOC)cc1 (stereo unspecified) | 1.3 | 0.05
CC(=O)Oc1c(C)c(C)c2c(c1C)CCC(C)(CCCC(C)CCCC(C)CCCC(C)C)O2 (stereo unspecified) | 1.4 | .
CCc1nn(CC(=O)N2CCN(C3CCCCC3)CC2)c(=O)c2cc3occc3n12 | 1.8 | -3
Cc1ccc(N2CCN(c3c(C)c(C)nc4ncnn34)CC2)c(C)c1 | 1.2 | .
NC(=O)c1nnc2cc(-c3ccccc3)nn2c1-c1ccccc1Cl | . | 0.73
C=CCOc1ccc(C2/C(=C(\O)c3ccc(F)cc3)C(=O)C(=O)N2c2nnc(C)s2)cc1 (stereo unspecified) | -8.8 | 0.18

By substructure: those above with an NH in an aromatic ring
SMILES | HIV TAR-Tat | CDC25B-CDK2 inh
O=C(Nc1cccc(F)c1)c1c(O)c2ccccc2[nH]c1=O | -15 | -0.95
Cc1ccc(C)c(Nc2n[nH]c(=S)s2)c1 | . | -2.1

Carrying on:
SMILES | HIV TAR-Tat | CDC25B-CDK2 inh
Cc1ccc(C(c2sc3nc(C)nn3c2O)N2CCN(CCO)CC2)cc1 (stereo unspecified) | . | -2.4
CCn1nc(NS(C)(=O)=O)c2cc3cccc(C)c3nc21 | 0 | -4.4
CCOC(=O)c1[nH]c2c(c1C)C(=O)C(C(=O)OC)C(C)C2 (stereo unspecified) | -0.41 | -0.86
Fc1ccc(-c2[nH]ncc2CN2CCN(Cc3ccc4c(c3)OCO4)CC2)cc1 | . | -1.3
O=S(=O)(Nc1ccccc1)c1ccc2c(c1)Cc1cc(S(=O)(=O)Nc3ccccc3)ccc1-2 | 1.1 | -2
CC(=O)NCC(c1ccco1)S(=O)(=O)c1ccc(F)cc1 (stereo unspecified) | -0.3 | .
CC(C)n1cnc2nc(CSc3ccc(NC(=O)c4ccco4)cc3)cc(=O)n21 | -0.12 | -1.8
CN(C)CCNC(=O)C1CCCNC1=O (stereo unspecified) | 0.13 | -1.3
O=C(O)Cn1cnc2c(-c3ccccc3)noc2c1=O | 2.4 | -0.09
CSc1cccc(NS(=O)(=O)c2cc(-c3onc(C)c3C)ccc2C)c1 | 2.8 | .
c1ccc(CNc2nc(-c3ccccc3)ns2)cc1 | . | -1.4
Cc1nn(CC(=O)NC2CCC(C)CC2)c(=O)c2c1sc1ccccc12 (stereo unspecified) | 1.3 | 0.17
O=C(Nc1sccc1-n1cccc1)NC1Cc2ccccc2C1 | . | -2.9
Brc1ccc(Nc2nc3ccccc3n3nnnc23)cc1 | -1.6 | -0.5
COC(=O)c1coc(=O)c2ccccc12 | 5.2 | 0.79
O=S(=O)(NCC(c1ccco1)N1CCN(c2ccc(F)cc2)CC1)c1ccc(Cl)cc1 (stereo unspecified) | 1.4 | .
Cc1ccc(S(=O)(=O)NC(=O)Oc2ccc(-c3csnn3)cc2)cc1 | . | -1.2
CN1CCC(=C2c3ccccc3Sc3ccccc32)CC1 | 1.7 | .
CCOC(=O)Cn1c(=O)oc2cc(S(=O)(=O)N3CCn4c3nc3ccccc34)ccc21 | . | -1.1
O=C1c2cccnc2C(=O)N1Cc1ccc(S(=O)(=O)N2CCN(C3CCCCC3)CC2)s1 | -0.07 | .
S=c1[nH]nc(-c2ccc(Cl)cc2)n1-c1ccccc1 | . | -2.7&-2.7
Cc1nc(NCCN2CCOCC2)c2sc3nc4c(cc3c2n1)COC(C)(C)C4 | . | -3.5
COc1ccc(/C(O)=C2\C(=O)C(=O)N(CCCN(C)C)C2c2ccc(C(C)(C)C)cc2)cc1 (stereo unspecified) | 1.5 | 0.17
CN(C)CCN(Cc1ccccc1)C(=O)Cn1ncc2c([nH]c3ccccc32)c1=O | 0.43 | .
CSc1nn(CO)c(=S)s1 | . | -1.2
CCC(C(=O)NCCN(C)C)N1C(=O)CCn2nc(C)cc21 (stereo unspecified) | 0.39 | .
O=C(O)c1ccc(Nc2nc3ccc(Cl)cc3n3cnnc23)cc1 | 1 | -1.1
O=C(CCn1cccc(C(F)(F)F)c1=O)NNC(=O)c1cccc(Cl)c1 | . | -1.1
COC(=O)c1ccc(C(=O)OC)c(N2C(=O)CC(Sc3ccccc3N)C2=O)c1 (stereo unspecified) | . | -1.1
Cc1ccc2oc(=O)c3cc(C(=O)N(C)Cc4ccco4)sc3c2c1 | 3.3 | -1
C=CCOc1ccc(C2c3c(-c4ccccc4O)n[nH]c3C(=O)N2Cc2ccncc2)cc1OC (stereo unspecified) | 0.23 | -1.2
Cc1ccc(NS(=O)(=O)c2ccc(-c3cc(C)[nH]n3)o2)c(Cl)c1 | 1.6 | .
O=C1CC(C(=O)O)N=C(Nc2nc3ccccc3s2)N1 (stereo unspecified) | . | -1.1
COCCOC(=O)C1=C(C)NC2=C(C(=O)CC(C)(C)C2)C1c1ccc(Br)cc1 (stereo unspecified) | 1.4 | -1.7
O=C(O)C1CCC(CNc2c(N3CCCC3)c(=O)c2=O)CC1 (stereo unspecified) | 1 | .
CCN1C(=O)c2ccccc2Sc2ccc(NC(=O)N3CCc4ccccc4C3)cc21 | -1 | -0.8
O=C(Nc1nnc(C2CCCO2)s1)c1c(-c2ccccc2)c(-c2ccccc2)n[nH]c1=O (stereo unspecified) | 0.88 | 0
Cc1nn(CCCC(=O)NCCC(C)C)c(=O)c2c1sc1ccccc12 | 2.1 | -1.6
CN(C)c1ccc(CNc2nc(-c3ccco3)nn2S(=O)(=O)c2ccc(F)cc2)cc1 | 2.4 | -0.83
Cc1onc(-c2ccccc2)c1C(=O)NNC(=O)C1CC1 | . | -2
O=C(Cn1ncc2c(=O)oc3ccccc3c21)Nc1nc2ccccc2s1 | . | -0.73
COC(=O)Cn1ncc2c3ccccc3n(Cc3cccc(Cl)c3)c2c1=O | -0.05 | -1
CCOC(=O)C1=C[C@]2(CC)CCCN3CCc4c(n1c1ccccc41)[C@@H]32 | 2.9 | -1.4
O=C(NCCC1=CCCCC1)c1cc2c(Cl)ccc3c2n1CCO3 | 0.14 | .
Cc1ccc2c(Cl)c(C(=O)Nc3nc(C)c(C)s3)sc2c1 | 0.03 | -0.74
Cc1cc(C)n2nc(NC(=O)C(C)Oc3ccccc3)nc2n1 (stereo unspecified) | 0.52 | -0.65
Cc1nc2nc(NC(=O)C3CCCO3)[nH]n2c(=O)c1Cc1ccccc1 (stereo unspecified) | 0.38 | -2.6
CNC(=S)NNC(=O)c1c(C)nc2cc(C)ccn12 | . | -1.6
CC1CCC(NC(=O)C2(C)Cn3c(cc4occc43)C(=O)N2Cc2cccs2)CC1 (stereo unspecified) | 10* | .
COc1ccc(C)cc1NS(=O)(=O)c1cc(-c2cnc(C)o2)ccc1OC | 1.1 | .
(list continues)
SMILES | HIV TAR-Tat | CDC25B-CDK2 inh
Cc1[nH]c2ccccc2c1C(=O)CN1CCN(c2ccccn2)CC1 | 1.3 | -1.1
COc1ccc(OC)c(C2CC(=O)NC(SC)=C2C#N)c1 (stereo unspecified) | -0.7 | -1.8
CCCCCCNc1nc(C)nc2c1sc1nc3c(cc12)COC(C)(C)C3 | -5.4 | -1.1
COC(=O)c1cc(Br)c(Br)s1 | . | -1.9
CCN(C(=O)c1nn(C)cc1[N+](=O)[O-])c1ccccc1 | 0.5 | -2.3
Cc1cc(=O)n2nc(-c3cccs3)nc2n1CC(=O)N1CCN(C)CC1 | 1.4 | -1.2
NC(=O)c1ccc2c(c1)CCN2S(=O)(=O)c1ccccc1 | -0.32 | -1.6
CCOC(=O)c1nc(N2CCC(C(=O)OCC)CC2)c2c(C)noc2n1 | 0.54 | .
O=C(CSc1nc2c(oc3ccccc32)c(=O)n1Cc1ccco1)Nc1cccc(Cl)c1 | -1.3 | -3.3
COCCN1C(=O)c2[nH]nc(-c3ccccc3O)c2C1c1ccc(SC)cc1 (stereo unspecified) | 0.84 | -0.05
Cn1nc(C(=O)Nc2cc(F)ccc2F)c2c1-c1ccccc1SC2 | 2.6 | -1.1
COc1ccc(-c2cc(=O)c3ccccc3o2)cc1OC | 0.75 | .
O=C(NCCCN1CCOCC1)c1c(O)nc2ccccn2c1=O | 1.2 | -1.8
COCC(C)Nc1ncnc2c1cnn2-c1ccc(C)c(C)c1 (stereo unspecified) | 1.4 | .
NC(=O)C1CCN(C(=O)c2ccc(N3C(=O)CCS3(=O)=O)cc2)CC1 | 2.1 | -2.4

Among those listed so far, these contain fluorine:
SMILES | HIV TAR-Tat | CDC25B-CDK2 inh
Cn1c(SCc2ccc(F)cc2)nnc1-c1ccc2c(c1)OCCCO2 | 1 | .
O=C(Nc1cccc(F)c1)c1c(O)c2ccccc2[nH]c1=O | -15 | -0.95
O=C(NCc1cccn1Cc1cccc(F)c1)Nc1ccc2c(c1)OCO2 | -1 | .
CCOc1ccc(C2c3c(oc4ccc(F)cc4c3=O)C(=O)N2CCOC)cc1 (stereo unspecified) | 1.3 | 0.05
C=CCOc1ccc(C2/C(=C(\O)c3ccc(F)cc3)C(=O)C(=O)N2c2nnc(C)s2)cc1 (stereo unspecified) | -8.8 | 0.18
Fc1ccc(-c2[nH]ncc2CN2CCN(Cc3ccc4c(c3)OCO4)CC2)cc1 | . | -1.3
CC(=O)NCC(c1ccco1)S(=O)(=O)c1ccc(F)cc1 (stereo unspecified) | -0.3 | .
O=S(=O)(NCC(c1ccco1)N1CCN(c2ccc(F)cc2)CC1)c1ccc(Cl)cc1 (stereo unspecified) | 1.4 | .
O=C(CCn1cccc(C(F)(F)F)c1=O)NNC(=O)c1cccc(Cl)c1 | . | -1.1
CN(C)c1ccc(CNc2nc(-c3ccco3)nn2S(=O)(=O)c2ccc(F)cc2)cc1 | 2.4 | -0.83
Cn1nc(C(=O)Nc2cc(F)ccc2F)c2c1-c1ccccc1SC2 | 2.6 | -1.1

From PubChem
